High-throughput results: PubChem BioAssay, National Center for Advancing Translational Sciences (NCATS)
Cruzain Triton = cruzain (T. cruzi) inhibition with detergent | 200,000 tested, 0.43% active | purified cruzain, Z-FR-AMC fluorescence, 0.01% Triton | Potency, µM, for the others: max response, negative = inhibition, most hits filed as inhibitors | AID 1478 | P25779;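 also: plate controls were neutral wells for no effect and buffer without enzyme for full effect; nearly all actives have a fitted effect of over 40% in size; top concentration of the series not given in the record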
Target sequence (P25779 123-467 limits assumed): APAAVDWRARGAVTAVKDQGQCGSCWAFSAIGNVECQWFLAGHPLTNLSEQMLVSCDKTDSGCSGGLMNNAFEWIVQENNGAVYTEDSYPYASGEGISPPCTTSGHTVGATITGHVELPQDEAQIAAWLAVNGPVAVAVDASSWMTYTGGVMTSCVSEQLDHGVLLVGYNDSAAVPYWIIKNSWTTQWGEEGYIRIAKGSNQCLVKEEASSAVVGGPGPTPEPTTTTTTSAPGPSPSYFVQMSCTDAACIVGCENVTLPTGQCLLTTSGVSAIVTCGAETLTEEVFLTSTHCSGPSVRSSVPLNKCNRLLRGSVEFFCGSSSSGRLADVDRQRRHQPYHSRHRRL
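Compounds were screened in titration against cruzain (1.5 nM) with 0.01% Triton X-100 to counter colloidal aggregation. Activity was the AMC fluorescence increase over 60 s after adding 2 uM Z-FR-AMC at pH 5.5.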
RE007 growth inh = less growth of the S. pombe RE007 Vpr strain; S. pombe RE007 Vpr strain, BacTiter-Glo ATP luminescence, 24 h; control for the full effect not named in the record; Potency, µM (highest dose often 92.2 µM), inactives show at the top dose activity change, negative = less growth; 360,000 tested, 0.21% active; active = well fitted falling curve with a large enough effect; inconclusive = small, poorly fitted or top-dose-only effect; inactive = no such curve, though single readings can be large or run the other way;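 also: % is scaled to controls: 0 for no effect and ±100 for the full control effect; nearly all actives have a fitted effect of over 50% in size; the assay follows cell death caused by Vpr and the record does not say whether a fall means rescue or toxicity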
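Fission yeast strain RE007, carrying one chromosomally integrated HIV-1 vpr copy, was seeded at OD 0.01 in PMG+AL medium with 23 nL pinned compound. After 24 h at 30 °C and 99% humidity, viability was read by BacTiter-Glo luminescence.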
Lassa entry inh = blocks Lassa virus binding to or entry into cells. AID 540256. 300,000 tested, 1.2% active. Lassa virus pseudotype entry inhibition, cell reporter; control for the full effect not named in the record. Potency, µM (doses to about 37.9 µM), for inactives: top-dose activity change, negative = inhibition, actives largely listed as inhibitors; active means well fitted inhibition curve with a large enough effect; inconclusive means small, poorly fitted or top-dose-only effect, or effect the other way; inactive means flat fitted curve, though single readings scatter; tested in HEK293 cells; also: % is scaled to controls: 0 for no effect and ±100 for the full control effect; nearly all actives have a fitted effect of over 50% in size; luciferase read-out
Marburg entry inh = Marburg virus entry inhibition | Marburg virus pseudotyped entry inhibition, cell reporter; control for the full effect not named in the record; about a third of the inactives were read at about 46 µM | Potency, µM (titrated, usually from 37.8 µM), for inactives: at the highest dose activity change, negative = inhibition, actives largely listed as inhibitors | 300,000 tested, 1.8% active | AID 540276; active = well fitted inhibition curve with a large enough effect; inconclusive = small, poorly fitted or top-dose-only effect, or effect the other way; inactive = flat fitted curve, though single readings scatter; tested in HEK293 cells; about a fifth of its hits are not listed in these tables; also: % is scaled to controls: 0 for no effect and ±100 for the full control effect; luciferase read-out
Cruzain noTriton = inhibitors of Trypanosoma cruzi cruzain without detergent; AID 1476; Potency, µM, for inactives: max response, negative = inhibition, actives largely listed as inhibitors; 200,000 tested, 2.3% active; purified cruzain, Z-FR-AMC fluorescence, no detergent;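 also: plate controls were enzyme without inhibitor for no effect and buffer without enzyme for full effect; nearly all actives have a fitted effect of over 40% in size; top concentration of the series not given in the record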
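Detergent-free condition (0.00005% Triton X-100) in acetate buffer pH 5.5 with DTT. 1.5 nM enzyme and compound were pre-mixed 15 min, then 2 uM Z-FR-AMC substrate added; reaction progress from fluorescence change between first and third reads (60 s).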
NS1 inh = blocks influenza NS1 protein function; S. cerevisiae slowed by influenza A NS1, growth recovery by OD600; Potency, µM (doses to about 46.1 µM), inactives show at the top dose activity, positive = more growth; 270,000 tested, 0.4% active; AID 2326; active means well fitted rising curve with a large enough effect; inconclusive means small, poorly fitted or top-dose-only effect; inactive means no such curve, though single readings can be large or run the other way; also: nearly all actives have a fitted effect of over 50% in size
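Growth recovery, yeast-based: influenza A NS1 expressed in S. cerevisiae causes slow growth, and suppressors are detected by OD600. The parent strain without NS1 is used as positive control.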
SARS PLpro yeast = SARS-CoV PLP inhibition in yeast; AID 485353; 330,000 tested, 0.19% active; Potency, µM (top dose mostly 32.9 µM), inactives show top-dose activity, positive = growth rescue; S. cerevisiae expressing SARS-CoV PLpro, growth rescue; control for the full effect not named in the record; active means well fitted rising curve with a large enough effect; inconclusive means small, poorly fitted or top-dose-only effect; inactive means no such curve, though single readings can be large or run the other way; also: 0% is about no effect; nearly all actives have a fitted effect of over 55% in size; growth read by luminescence after 48 h
StopGo reporter = FMDV 2A StopGo reporter, luciferase signal; Potency, µM (series often up to 57.9 µM), for inactives: top-dose signal change, negative = less light; 410,000 tested, 1.2% active; human cells with a luciferase reporter of 2A StopGo recoding; control for the full effect not named in the record; AID 1159524; active = well fitted falling curve with a large enough effect; inconclusive = small, poorly fitted or top-dose-only effect; inactive = no such curve, though single readings can be large or run the other way; tested in HEK293T cells; also: % is scaled to controls: 0 for no effect and ±100 for the full control effect; nearly all actives have a fitted effect of over 45% in size; luciferase light after 4 h
* = called active by the depositor; ? = inconclusive; · = not tested or not shown; & = joins results of further samples; [ ] = another dose, or the depositor's remark. Unless noted, calls follow the shape of the dose curve; as a rule, active = well fitted curve in the direction sought with a large enough effect; inconclusive = small, poorly fitted or top-dose-only effect, or another doubt; inactive = no such curve, though single readings can be large; an effect the other way counts as inactive or inconclusive. Potency is read from the fitted curve at half-maximal effect.

no. | compound | Marburg entry inh | SARS PLpro yeast | RE007 growth inh | Cruzain noTriton | Cruzain Triton | StopGo reporter | Lassa entry inh | NS1 inh
1 | O=C(CSc1nc(=O)n(Cc2ccncc2)c2c1CCC2)Nc1ccccc1 | · | · | · | 4% | 3.6% | -13% | 1%[46.1 µM] | ·
2 | CCOc1ccc(Nc2nc3ccccc3c3nnc(CC)n23)cc1 | -8%[46.1 µM] | · | · | ? | -2.0% | -24% | ? | ·
3 | CCOC(=O)C(=CNc1ccc2c(c1)c1ccccc1n2CC)C(=O)OCC | · | -1% | 4% | · | · | -15% | · | 3%
4 | CCCCNc1cc(NC(C)=O)cc2cc(OC)c(OC)cc12 | -9% | -4% | -6% | 2% | -4.3% | · | -4% | -8%
5 | COc1ccc(CN(C)C(=O)c2ccc(NS(=O)(=O)c3ccc(F)cc3)cc2)c(OC)c1 | ? | 2% | -6% | · | · | 5% | ? | 2%
6 | N#CC1=C(N)Oc2c(c(=O)sc3ccccc23)C1c1ccncc1 (stereo not given) | ? | -3% | -2% | · | · | -2% | -19% | ·
7 | COc1cccc(CN2CCN(C(=S)NCc3ccc(Cl)cc3)CC2)c1 | · | 1% | -10% | · | · | -3% | · | -49%
8 | COC(=O)c1cc(Oc2ccc(C(=O)OC)cc2N)cc(C(=O)OC)c1 | ? | 4% | 26% | 5% | -2.0% | -5% | ? | -35%
9 | CSc1ccc(S(=O)(=O)NCCCn2ccnc2)cc1 | 0%[46.1 µM] | 2% | 6% | · | · | 12% | -22%[46.1 µM] | 9%
10 | O=C(OCc1ccc([N+](=O)[O-])cc1)C1CCN(S(=O)(=O)c2ccccc2)CC1 | 0% | 8% | 18% | 2% | -5.1% | -1% | 29% | 15%

Complete entries, quoted from the list. Order of values: Marburg entry inh, SARS PLpro yeast, RE007 growth inh, Cruzain noTriton, Cruzain Triton, StopGo reporter, Lassa entry inh, NS1 inh
Profile of CCOc1ccc(Nc2nc3ccccc3c3nnc(CC)n23)cc1 → -8%[46.1 µM], ·, ·, ?, -2.0%, -24%, ?, ·
Profile of COC(=O)c1cc(Oc2ccc(C(=O)OC)cc2N)cc(C(=O)OC)c1 → ?, 4%, 26%, 5%, -2.0%, -5%, ?, -35%

Further records:
no. | compound | Marburg entry inh | SARS PLpro yeast | RE007 growth inh | Cruzain noTriton | Cruzain Triton | StopGo reporter | Lassa entry inh | NS1 inh
11 | O=C(c1ccc(Cl)cc1)n1nc(-c2cccnc2)nc1NCc1ccc(F)cc1 | ? | · | · | -14% | -6.1% | -15% | 18%[46.1 µM] | ·
12 | Oc1c(Br)cc(Br)cc1C=NCc1ccc(F)cc1 | ? | -1% | ? | · | · | -1% | ? | ·
13 | NC(=O)CC(NC(=O)Cc1ccc(Br)cc1)c1ccc(NC2CC3CCC2C3)c([N+](=O)[O-])c1 (stereo not given) | · | -5% | -3% | · | · | -14% | · | -12%
14 | CCc1nc(C)cn1S(=O)(=O)c1cc(Br)ccc1OC | 19% | -9% | 7% | -1% | -2.1% | 25% | 0% | -12%
15 | CN(C)c1ccc(-c2noc(C3CCN(S(=O)(=O)c4cccc(C(=O)O)c4)CC3)n2)cc1 | ? | 13% | 8% | ? | -11% | · | -8% | 5%
16 | CCOC(=O)c1c(N2C(=O)CC(Sc3ccccc3C(=O)O)C2=O)sc(C)c1C (stereo not given) | · | -6% | -11% | · | · | -22% | · | -13%
17 | CCS(=O)(=O)c1ncc(N(Cc2ccccc2)Cc2ccco2)c(C(=O)Nc2cccc(Cl)c2C)n1 | ? | · | · | ? | -3.4% | 3% | -10%[46.1 µM] | ·
18 | CCN(CC(=O)Nc1cc(Cl)ccc1C)C(=O)COc1ccccc1F | -22%[46.1 µM] | 0% | -3% | · | · | -14% | · | ·
19 | CCOC(=O)C1CCCN(c2ncnc3c2cnn3-c2ccc(Cl)cc2)C1 (stereo not given) | ? | -4% | 4% | 25% | -1.3% | ? | ? | -82%
20 | COC(=O)c1cc(Cl)ccc1NC(=O)Cn1c(C)cc(C)c(C#N)c1=O | ? | · | · | -5% | -5.1% | -4% | 24%[46.1 µM] | ·
21 | Cc1[nH]c2ccccc2c1SCCNC(=O)c1ccccc1F | ? | · | · | -5% | -8.2% | -21% | ? | ·
22 | O=C1c2[nH]nc(-c3ccccc3O)c2C(c2ccc(Cl)cc2)N1Cc1ccco1 (stereo not given) | -23%[46.1 µM] | · | · | ? | -16% | -21% | ? | ·
23 | COC(=O)c1sccc1-n1cccc1C(=O)N1CCOCC1 | -8% | -3% | 18% | 2% | 2.2% | -16% | 3% | -11%
24 | CCC(=O)N1CCN=C1SCc1ccccc1Cl | · | 6% | 0% | -10% | -2.9% | -3% | · | -18%
25 | COc1ccc(OC)c2c(N)c(C#N)c(C(F)(F)C(F)(F)F)nc12 | -5%&-5%[46.1 µM] | 10% | 4% | -1% | 8.0% | -5% | 2% | -6%
26 | CCC(=O)Oc1oc(-c2ccccc2)nc1C=Nc1ccccc1OC | ? | -5% | 15% | -15% | -18% | -8% | -30% | -47%
27 | Cc1cc(NC(=O)C(C)SCC(=O)Nc2ccccc2OC(F)F)no1 (stereo not given) | -1% | 6% | 6% | · | · | -19% | -6% | 0%
28 | O=S(=O)(CCSc1nc2ccccc2s1)c1nc2ccccc2s1 | ? | -60% | -28% | ? | -1.7% | 8.9µM* | ? | -7%
29 | Cc1nn(CCc2n[nH]c(=S)n2C2CCCCC2)c(C)c1Br | 23% | 8% | -9% | -4% | 4.2% | -21% | -6% | 16%
30 | Cc1ccc(C(=O)OCC(=O)NCCc2ccccc2)cc1S(=O)(=O)N1CCOCC1 | ? | -1% | 2% | · | · | -4% | 0%[46.1 µM] | ·
31 | CCc1sc(N(C(=O)Cc2ccccc2)c2ccccc2)nc1-c1ccccc1 | ? | -2% | 19% | ? | 6.5% | 1% | -30% | 4%
32 | COc1ccc(CCNc2nc(-c3ccc(Cl)cc3)cc(C(F)(F)F)n2)cc1OC | ? | · | · | -3% | -3.3% | -27% | 12%[46.1 µM] | ·
33 | CCOC(=O)COc1ccc(/C=C2\C(=O)NC(=S)N(c3ccc(OC)cc3)C2=O)cc1OC | · | 2% | 9% | · | · | -21% | · | -1%
34 | O=C(O)CC1(CC(=O)N2CCN(CCO)CC2)CCCC1 | 1%[46.1 µM] | -3% | -4% | · | · | -3% | 8% | ·
35 | CCOc1ccc(CN(CCCl)CCCl)cc1C(=O)OC | ? | -9% | -72% | 6% | 1.8% | 6% | ? | 6%
36 | OC(CN1CCN(Cc2ccccc2)CC1)c1ccccc1 (stereo not given) | · | 3% | -3% | · | · | 3% | · | 7%
37 | Clc1ccc(CNCCC2=CCCCC2)cc1 | ? | -4% | 1% | 20% | 3.2% | 23% | -20% | 2%
38 | COc1cc2oc(=O)cc(-c3ccc(-c4ccc(CO)cc4)cc3)c2c(OC)c1OC | · | 14% | 1% | 8% | 0.1% | -27% | · | ·
39 | Cc1ccc(C2C(C(=O)O)c3ccccc3C(=O)N2C)o1 (stereo not given) | 2% | 9% | 5% | -5% | 5.4% | · | 12% | 2%
40 | O=C(OCc1ccccc1)c1cccnc1Cl | 25%[46.1 µM] | 2% | -7% | · | · | 15% | -9% | ·
41 | COc1ccc(C2=NOC(C(=O)Nc3ccc(C(C)=O)cc3)C2)cc1OC (stereo not given) | 6% | 4% | 3% | 11% | 1.5% | 26% | 2% | -11%
42 | Fc1ccc(CN2CCSCC2)cc1Br | -2% | 0% | 0% | 1% | 2.0% | 13% | -12% | -3%
43 | CC(C)C(=O)Nc1ccc(C(=O)NNC(=O)c2cccs2)cc1 | 21% | -5% | 4% | -2% | 2.5% | 11% | 7% | ?
44 | CCOc1cc(/C=N/NC(=O)CSc2nncn2C)ccc1OCc1ccccc1 | -12% | 15% | -13% | ? | -3.1% | 9% | 4% | -18%
45 | COc1cccc(C2C(C(=O)c3cccs3)=C(O)C(=O)N2CCN(C)C)c1OC (stereo not given) | 23%[46.1 µM] | 11% | -5% | -11% | -3.8% | 12% | 2% | ?
46 | Nc1nnc(COc2ccc(Br)cc2Br)s1 | ? | 10% | -7% | ? | -1.6% | · | 29% | -11%
47 | Cc1cc(C)c2c(N)c(S(=O)c3ccc(C(C)(C)C)cc3)sc2n1 (stereo not given) | ? | 4% | -11% | 7% | -9.8% | · | -26% | 3%
48 | Cc1nn(C)cc1-c1cc(C(=O)O)c2ccccc2n1 | -2%[46.1 µM] | 2% | 20% | · | · | -4% | ? | 1%
49 | Cc1ccc(C(=O)N2CCN(Cc3ccccc3)CC2)cc1S(=O)(=O)N1CCOCC1 | -1% | 2% | 1% | · | · | -18% | -6% | ·
50 | c1ccc(OCCn2cnc3ccccc32)cc1 | 6% | -6% | 7% | 4% | 0.1% | 8% | 29% | -6%
51 | COc1ccc(Nc2nc(N3CCN(S(=O)(=O)N(C)C)CC3)nc3ccccc23)cc1 | · | 3% | -8% | · | · | -17% | · | -3%
52 | O=c1cc(CN2CCN(S(=O)(=O)/C=C/c3ccccc3)CC2)c2ccc(O)cc2o1 | ? | 3% | 3% | -12% | -8.9% | -8% | -9% | 19%
53 | COc1ccc(CCNC(=O)Cc2c(C)c3c(cc(C)c4c(C)coc43)oc2=O)cc1OC | 0%[46.1 µM] | · | · | 5% | 1.0% | 6% | -1%[46.1 µM] | ·
54 | Cc1cccc(-c2nc(CSCC(=O)NCc3cccs3)c(C)o2)c1 | 10% | -7% | 11% | -1% | -3.2% | -19% | 17% | -57%
55 | COC(=O)c1ccc(C(=O)Nc2ccc3nc(-c4cccnc4)[nH]c3c2)cc1 | -17% | 3% | 1% | 4% | 0.9% | 0% | -1% | -2%
56 | CCOC(=O)c1nc(Nc2ccc(Cl)cc2)c2c(C)noc2n1 | · | · | · | -7% | -1.4% | 5% | 9%[46.1 µM] | ·
